Cruzain inh Det: qHTS Assay for Promiscuous and Specific Inhibitors of Cruzain (with detergent); AID 1478, 2009; Potency, µM, for inactives: max response, negative = inhibition, actives largely listed as inhibitors; purified cruzain, Z-FR-AMC fluorescence, 0.01% Triton; Cruzipain (Trypanosoma cruzi), P25779; hit rate 0.43% among 200,000;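 also: plate controls were neutral wells for no effect and buffer without enzyme for full effect; nearly all actives have a fitted effect of over 40% in size; top concentration of the series not given in the record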
Target sequence (P25779 123-467 limits assumed): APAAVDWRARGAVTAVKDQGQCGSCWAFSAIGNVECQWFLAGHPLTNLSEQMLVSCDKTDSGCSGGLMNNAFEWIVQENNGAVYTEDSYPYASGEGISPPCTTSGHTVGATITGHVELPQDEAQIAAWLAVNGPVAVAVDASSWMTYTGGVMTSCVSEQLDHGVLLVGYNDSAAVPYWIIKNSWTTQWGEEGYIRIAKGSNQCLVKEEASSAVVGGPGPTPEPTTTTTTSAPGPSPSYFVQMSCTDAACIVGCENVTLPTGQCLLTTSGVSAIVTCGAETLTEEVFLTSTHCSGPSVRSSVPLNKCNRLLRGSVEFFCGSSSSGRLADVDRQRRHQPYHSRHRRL
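Cruzain (1.5 nM) preincubated 15 min at RT with compound in 100 mM sodium acetate pH 5.5, 5 mM DTT, 0.01% Triton X-100. Reaction started with 2 uM Z-FR-AMC; AMC fluorescence (ex 360/em 450 nm) change over 60 s gave rate.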
Lassa entry inh: qHTS for Inhibitors of binding or entry into cells for Lassa Virus; AID 540256, 2011; Potency, µM (top dose mostly 37.9 µM), inactives show at the highest dose activity change, negative = inhibition, actives largely listed as inhibitors; Lassa virus pseudotype entry inhibition, cell reporter; control for the full effect not named in the record; hit rate 1.2% among 300,000; active means well fitted inhibition curve with a large enough effect; inconclusive means small, poorly fitted or top-dose-only effect, or effect the other way; inactive means flat fitted curve, though single readings scatter; tested in HEK293 cells; also: % is scaled to controls: 0 for no effect and ±100 for the full control effect; nearly all actives have a fitted effect of over 50% in size; luciferase read-out
NS1 function inh: qHTS Assay for Inhibitors of Influenza NS1 Protein Function; S. cerevisiae slowed by influenza A NS1, growth recovery by OD600; Potency, µM (titrated, usually from 46.1 µM), without a hit: at the highest dose activity, positive = more growth; hit rate 0.4% among 270,000; AID 2326, 2010; active means well fitted rising curve with a large enough effect; inconclusive means small, poorly fitted or top-dose-only effect; inactive means no such curve, though single readings can be large or run the other way; also: nearly all actives have a fitted effect of over 50% in size
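S. cerevisiae expressing influenza A NS1, grown in glucose, washed, then diluted 1:100 into pH 6.0 -URA galactose medium with 23 nl compound. Growth recovery read as OD600; NS1-free strain serves as control.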
Cruzain noTriton: qHTS Assay for Promiscuous and Specific Inhibitors of Cruzain (without detergent) | Potency, µM, without a hit: max response, negative = inhibition, hits mostly inhibitors | Cruzipain (Trypanosoma cruzi), P25779 | purified cruzain, Z-FR-AMC fluorescence, no detergent | AID 1476, 2009 | hit rate 2.3% among 200,000;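 also: plate controls were enzyme without inhibitor for no effect and buffer without enzyme for full effect; nearly all actives have a fitted effect of over 40% in size; top concentration of the series not given in the record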
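Purified cruzain at 1.5 nM, pre-incubated 15 min with compound at room temperature in 100 mM sodium acetate pH 5.5, 5 mM DTT, 0.00005% Triton X-100. Reaction started with 2 uM Z-FR-AMC; AMC fluorescence increase over 60 s gives rate.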
2A StopGo: High Throughput Screening for Foot and Mouth Disease Virus Antivirals; human cells with a luciferase reporter of 2A StopGo recoding; control for the full effect not named in the record; Potency, µM (highest dose often 57.9 µM), inactives show at the highest dose signal change, negative = less light; hit rate 1.2% among 410,000; AID 1159524, 2015; active = well fitted falling curve with a large enough effect; inconclusive = small, poorly fitted or top-dose-only effect; inactive = no such curve, though single readings can be large or run the other way; tested in HEK293T cells; also: % is scaled to controls: 0 for no effect and ±100 for the full control effect; nearly all actives have a fitted effect of over 45% in size; luciferase light after 4 h
SARS PLpro yeast: qHTS of Yeast-based Assay for SARS-CoV PLP | Potency, µM (highest dose often 32.9 µM), without a hit: at the highest dose activity, positive = growth rescue | AID 485353, 2010 | hit rate 0.19% among 330,000 | S. cerevisiae expressing SARS-CoV PLpro, growth rescue; control for the full effect not named in the record; active means well fitted rising curve with a large enough effect; inconclusive means small, poorly fitted or top-dose-only effect; inactive means no such curve, though single readings can be large or run the other way; also: 0% is about no effect; nearly all actives have a fitted effect of over 55% in size; growth read by luminescence after 48 h
MARV entry inh: qHTS for inhibitors of binding or entry into cells for Marburg Virus; Marburg virus pseudotyped entry inhibition, cell reporter; control for the full effect not named in the record; about a third of the inactives were read at about 46 µM; Potency, µM (titrated, usually from 37.8 µM), for inactives: top-dose activity change, negative = inhibition, most hits filed as inhibitors; hit rate 1.8% among 300,000; AID 540276, 2011; active = well fitted inhibition curve with a large enough effect; inconclusive = small, poorly fitted or top-dose-only effect, or effect the other way; inactive = flat fitted curve, though single readings scatter; tested in HEK293 cells; about a fifth of its hits are not listed in these tables; also: % is scaled to controls: 0 for no effect and ±100 for the full control effect; luciferase read-out
RE007 growth inh: qHTS Assay for Inhibitors of the HIV-1 protein Vpr | S. pombe RE007 Vpr strain, BacTiter-Glo ATP luminescence, 24 h; control for the full effect not named in the record | Potency, µM (series often up to 92.2 µM), for inactives: at the highest dose activity change, negative = less growth | hit rate 0.21% among 360,000 | AID 651644, 2012; active = well fitted falling curve with a large enough effect; inconclusive = small, poorly fitted or top-dose-only effect; inactive = no such curve, though single readings can be large or run the other way;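 also: % is scaled to controls: 0 for no effect and ±100 for the full control effect; nearly all actives have a fitted effect of over 50% in size; the assay follows cell death caused by Vpr and the record does not say whether a fall means rescue or toxicity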
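Fission yeast RE007 carrying one integrated HIV-1 vpr copy, seeded at OD 0.01 in PMG+AL medium with 23 nL pinned compound. Grown 24 h at 30 degrees; viability read by BacTiter-Glo luminescence after 5 min.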
* marks the source's active call; other numbers are inactive results; ? = inconclusive; nt = no result given; [ ] = remark or other dose. Unless noted, calls follow the shape of the dose curve; as a rule, active = well fitted curve in the direction sought with a large enough effect; inconclusive = small, poorly fitted or top-dose-only effect, or another doubt; inactive = no such curve, though single readings can be large; an effect the other way counts as inactive or inconclusive. Potency is read from the fitted curve at half-maximal effect.

Key to letters: A = Cruzain inh Det; B = Lassa entry inh; C = NS1 function inh; D = Cruzain noTriton; E = 2A StopGo; F = SARS PLpro yeast; G = MARV entry inh; H = RE007 growth inh
[1] COCc1nc(-c2cc(OC)c(OC)c(OC)c2)no1
  A: 7.0% | B: -9% | C: -3% | D: 9% | E: 11% | F: 3% | G: -12% | H: 0%
[2] c1ccc(CCc2ccccn2)cc1
  A: nt | B: 4% | C: nt | D: nt | E: 41%[activator] | F: nt | G: -6% | H: 3%
[3] Cc1snc(SCC(=O)N/N=C(\N)COc2ccc(F)cc2)c1C#N
  A: 5.7% | B: -26% | C: 18% | D: ? | E: 1% | F: 4% | G: -4% | H: 14%
[4] Cc1c(CCO)c(=O)oc2n[nH]c(-c3ccccc3)c12
  A: nt | B: -1% | C: nt | D: nt | E: -22% | F: 6% | G: 16% | H: 0%
[5] COc1ccc(N2C(=O)CC(Sc3ccccc3C(=O)O)C2=O)c([N+](=O)[O-])c1 (configuration not stated)
  A: nt | B: nt | C: -34% | D: nt | E: 4% | F: -5% | G: nt | H: -24%
[6] Cn1ncc(Oc2ccc([N+](=O)[O-])cc2)c(Cl)c1=O
  A: nt | B: 0% | C: 4% | D: nt | E: 1% | F: 3% | G: 10%[46.1 µM] | H: 3%
[7] COc1cccc(NC(=O)CN(C)C(=O)c2ccccc2OCc2c(C)noc2C)c1
  A: nt | B: -1% | C: nt | D: nt | E: -18% | F: nt | G: -6%[46.1 µM] | H: 1%
[8] COc1ccc2ccc3ccc(OC)c(OC(C)=O)c3c2c1
  A: nt | B: 5%[46.1 µM] | C: nt | D: nt | E: -8% | F: nt | G: 14% | H: -3%
[9] Cn1c(=O)c2sccc2n2c(CCCC(=O)NC3CCN(Cc4ccccc4)CC3)nnc12
  A: nt | B: nt | C: 4% | D: nt | E: -2% | F: 1% | G: nt | H: -5%
[10] COc1ccc(CN2CCN(CC3CC3)CC2CCO)c(C)c1C (configuration not stated)
  A: nt | B: nt | C: 11% | D: nt | E: -6% | F: 1% | G: nt | H: -21%
[11] COc1ccc(C(=O)Nc2ccc3nc4n(c(=O)c3c2)CCCC4)cc1[N+](=O)[O-]
  A: -1.2% | B: 6% | C: 0% | D: -4% | E: nt | F: ? | G: ? | H: nt
[12] Cc1cc(C(=O)Nc2sc(C)c(C)c2C#N)c(C)o1
  A: 1.7% | B: 31% | C: 1% | D: 2% | E: 27% | F: 0% | G: 19% | H: 7%
[13] O=C(COc1ccc(S(=O)(=O)N2CCOCC2)cc1)N1CCOCC1
  A: nt | B: -12% | C: nt | D: nt | E: 0% | F: 1% | G: 21% | H: 4%
[14] CCc1ccccc1NC(=O)CCCSc1nc2ccccc2s1
  A: -6.4% | B: 2% | C: -3% | D: -10% | E: 12% | F: 14% | G: -4% | H: 1%
[15] O=C(OCCN1C(=O)CCC1=O)c1ccc(S(=O)(=O)N2CCCCC2)cc1
  A: -1.3% | B: 6% | C: 7% | D: 10% | E: -6% | F: 9% | G: -1% | H: -7%

Sorted by formula weight (falling): some entries from above.
Key to letters: A = Cruzain inh Det; B = Lassa entry inh; C = NS1 function inh; D = Cruzain noTriton; E = 2A StopGo; F = SARS PLpro yeast; G = MARV entry inh; H = RE007 growth inh
[9] Cn1c(=O)c2sccc2n2c(CCCC(=O)NC3CCN(Cc4ccccc4)CC3)nnc12
  A: nt | B: nt | C: 4% | D: nt | E: -2% | F: 1% | G: nt | H: -5%
[7] COc1cccc(NC(=O)CN(C)C(=O)c2ccccc2OCc2c(C)noc2C)c1
  A: nt | B: -1% | C: nt | D: nt | E: -18% | F: nt | G: -6%[46.1 µM] | H: 1%
[5] COc1ccc(N2C(=O)CC(Sc3ccccc3C(=O)O)C2=O)c([N+](=O)[O-])c1 (configuration not stated)
  A: nt | B: nt | C: -34% | D: nt | E: 4% | F: -5% | G: nt | H: -24%
[11] COc1ccc(C(=O)Nc2ccc3nc4n(c(=O)c3c2)CCCC4)cc1[N+](=O)[O-]
  A: -1.2% | B: 6% | C: 0% | D: -4% | E: nt | F: ? | G: ? | H: nt
[13] O=C(COc1ccc(S(=O)(=O)N2CCOCC2)cc1)N1CCOCC1
  A: nt | B: -12% | C: nt | D: nt | E: 0% | F: 1% | G: 21% | H: 4%
[14] CCc1ccccc1NC(=O)CCCSc1nc2ccccc2s1
  A: -6.4% | B: 2% | C: -3% | D: -10% | E: 12% | F: 14% | G: -4% | H: 1%
[8] COc1ccc2ccc3ccc(OC)c(OC(C)=O)c3c2c1
  A: nt | B: 5%[46.1 µM] | C: nt | D: nt | E: -8% | F: nt | G: 14% | H: -3%
[1] COCc1nc(-c2cc(OC)c(OC)c(OC)c2)no1
  A: 7.0% | B: -9% | C: -3% | D: 9% | E: 11% | F: 3% | G: -12% | H: 0%
[2] c1ccc(CCc2ccccn2)cc1
  A: nt | B: 4% | C: nt | D: nt | E: 41%[activator] | F: nt | G: -6% | H: 3%

Going on with the list.
Key to letters: A = Cruzain inh Det; B = Lassa entry inh; C = NS1 function inh; D = Cruzain noTriton; E = 2A StopGo; F = SARS PLpro yeast; G = MARV entry inh; H = RE007 growth inh
[16] Cc1ccc(CNC(=O)c2ccc(-c3nc(CS(=O)c4ccccc4)c(C)o3)cc2)cc1 (configuration not stated)
  A: -3.0% | B: 18%[46.1 µM] | C: nt | D: 12% | E: -23% | F: nt | G: nt | H: nt
[17] CN1CCN(S(=O)(=O)c2cccc(C(=O)N3CCc4ccccc43)c2)CC1
  A: nt | B: 2%[46.1 µM] | C: nt | D: nt | E: -7% | F: -4% | G: 2%[46.1 µM] | H: 6%
[18] COc1ccc(S(=O)(=O)N2CCOCC2)cc1NC(=O)CSc1cccc[n+]1[O-]
  A: nt | B: nt | C: -1% | D: nt | E: -10% | F: 0% | G: nt | H: -7%
[19] Cn1c(CCNC(=O)c2ccco2)nc2cc(NC(=O)COc3ccc(Cl)cc3)ccc21
  A: -1.4% | B: 6%[46.1 µM] | C: nt | D: -17% | E: -3% | F: nt | G: -2%[46.1 µM] | H: nt
[20] O=C1C=C(Nc2ccc(Cl)cc2)C(=O)N1c1ccc(Cl)cc1
  A: 1.1% | B: -1% | C: 29% | D: 6.3µM* | E: 8% | F: 7% | G: 0% | H: -15%
[21] Cc1cc(C)c2c(c1)NC(c1cc3c(cc1Br)OCO3)C1CC=CC21 (configuration not stated)
  A: -2.5% | B: ? | C: 1% | D: 20µM* | E: -4% | F: -24% | G: ? | H: nt
[22] CCCNCC1C(Oc2ccc(Cl)cc2)C(=O)N1c1ccccc1C (configuration not stated)
  A: -0.5% | B: ? | C: -16% | D: 11% | E: 14% | F: -8% | G: ? | H: 3%
[23] Cc1cccc(-c2nc(SCC(=O)NCc3ccco3)c3c(=O)n(C)c(=O)n(C)c3n2)c1
  A: 2.2% | B: -8%[46.1 µM] | C: nt | D: 3% | E: -8% | F: nt | G: nt | H: nt
[24] CCN(CC)S(=O)(=O)c1ccc(C(=O)NNC(=O)C2COc3ccccc3O2)cc1 (configuration not stated)
  A: nt | B: 7% | C: nt | D: nt | E: -17% | F: 1% | G: -1% | H: 27%
[25] Cc1ccc(CCNC(=O)C2CC(=O)N(C3CCCCC3)C2)cc1 (configuration not stated)
  A: nt | B: nt | C: -9% | D: nt | E: -12% | F: 1% | G: nt | H: 2%
[26] COc1ccc(/C=N/N2CCN(Cc3ccc(C)cc3)CC2)cc1Br
  A: nt | B: nt | C: -13% | D: nt | E: -16% | F: -6% | G: nt | H: -25%
[27] O=C(Nc1cccc(S(=O)(=O)Nc2ccc(Cl)cc2)c1)c1cc2c(s1)CCCC2
  A: -1.8% | B: ? | C: -5% | D: -23% | E: -10% | F: -12% | G: ? | H: 7%
[28] CC1(C)CC(=O)C(N=Nc2cccc([N+](=O)[O-])c2)=C(O)C1
  A: nt | B: ? | C: -77% | D: nt | E: 10% | F: -5% | G: ? | H: 14%
[29] COc1cccc(C2CC(c3ccccc3)=NN2S(=O)(=O)c2ccc(C)cc2)c1OC (configuration not stated)
  A: nt | B: ? | C: nt | D: nt | E: 40%[activator] | F: -2% | G: 6%[46.1 µM] | H: -6%
[30] COC(=O)c1nn(-c2ccc(OC)cc2)c(=O)cc1O
  A: nt | B: 4%[46.1 µM] | C: nt | D: nt | E: -5% | F: 1% | G: -14%[46.1 µM] | H: 0%

Further results
Key to letters: A = Cruzain inh Det; B = Lassa entry inh; C = NS1 function inh; D = Cruzain noTriton; E = 2A StopGo; F = SARS PLpro yeast; G = MARV entry inh; H = RE007 growth inh
[31] O=c1cc(O)nc(SCc2ccccc2)n1-c1ccc(F)cc1
  A: -8.0% | B: -3% | C: 12% | D: -15% | E: -28% | F: 5% | G: -5% | H: 1%
[32] COc1ccccc1-c1noc(CCCC(=O)NC2CCCCC2)n1
  A: nt | B: 12%[46.1 µM] | C: -4% | D: nt | E: -2% | F: 1% | G: -4%[46.1 µM] | H: -5%
[33] CNS(=O)(=O)c1cccc2cccnc12
  A: -0.3% | B: 0% | C: 4% | D: -24% | E: -15% | F: -5% | G: ? | H: -13%
[34] O=C(O)[C@H]1CCCC[C@H]1C(=O)NCCNC(=O)[C@@H]1CCCC[C@@H]1C(=O)O
  A: 1.5% | B: 20% | C: 3% | D: -3% | E: 18% | F: ? | G: -4% | H: 1%
[35] CCOC(=O)C(C(=O)OCC)N(C#N)c1nc(SC)nc(N(C)C)n1
  A: 2.5µM* | B: 0% | C: 2% | D: 3.2µM* | E: -11% | F: 4% | G: ? | H: 4%

High-throughput results as filed in PubChem BioAssay.
